High-throughput results deposited in PubChem BioAssay by several laboratories.
HSV replic up = HSV replication enhancement | HSV replication augmentation in cells, fold increase | maximum fold increase | 220,000 compounds, 0.005% hits | AID 1956;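 active means peak rise of 1.5-fold or more in the series; inconclusive means self-fluorescent or not available for retest; tested in PC3 cells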;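 further: first round at 10 µM; read as green reporter fluorescence; hits show the peak of a series up to 25 µM; 1 = signal of infected wells without compound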
Insulin prom inh = TRM-6 insulin promoter activity inhibition. TRM-6 cells (human fetal islet line), insulin promoter-eGFP reporter, imaging; reporter expression induced with tamoxifen. inhibition, % at 2 µM. 130,000 compounds, 0.9% hits;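 active means inhibition above the mean plus 3 SD, with well images judged a real hit on visual review, cut at about 60% in these data, passing the limit was not always enough; inconclusive means inhibition over the cutoff but images rejected on review; inactive means inhibition not above the cutoff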
GALR2 agonist = GALR2 (human) receptor agonism; O43603; GALR2-expressing cells, agonist activation read-out; activation, %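 (tested at 5 µM)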; 140,000 compounds, 0.48% hits; AID 803;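 active means above mean plus 3 SD of all compounds, about 5% in these data, not always enough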;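 further: 0% = vehicle buffer wells and 100% = reference agonist at full effect; tested in CHO reporter cells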
RGS16-Gao = regulators of human RGS16-Galphao interaction; bead-based flow cytometry RGS16-Galphao binding, fluorescence; actives lie on both sides; O15492+P09471; binding response (% of control), % at 10 µM; 220,000 compounds, 0.38% hits;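 active means below 25% or above 175%, edge rows of some plates excepted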;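 further: Galphao activated by GDP with aluminum fluoride before binding; 100% = wells without compound and 0% = beads without RGS; some results beyond the cut were filed as inactive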
Target sequence (O15492 whole entry, looked up): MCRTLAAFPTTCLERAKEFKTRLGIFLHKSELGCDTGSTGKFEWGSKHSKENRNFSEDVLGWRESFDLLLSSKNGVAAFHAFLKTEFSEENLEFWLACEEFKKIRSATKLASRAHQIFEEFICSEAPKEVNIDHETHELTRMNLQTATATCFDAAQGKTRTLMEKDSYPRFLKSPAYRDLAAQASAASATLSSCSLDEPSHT
Target sequence (P09471 whole entry, looked up): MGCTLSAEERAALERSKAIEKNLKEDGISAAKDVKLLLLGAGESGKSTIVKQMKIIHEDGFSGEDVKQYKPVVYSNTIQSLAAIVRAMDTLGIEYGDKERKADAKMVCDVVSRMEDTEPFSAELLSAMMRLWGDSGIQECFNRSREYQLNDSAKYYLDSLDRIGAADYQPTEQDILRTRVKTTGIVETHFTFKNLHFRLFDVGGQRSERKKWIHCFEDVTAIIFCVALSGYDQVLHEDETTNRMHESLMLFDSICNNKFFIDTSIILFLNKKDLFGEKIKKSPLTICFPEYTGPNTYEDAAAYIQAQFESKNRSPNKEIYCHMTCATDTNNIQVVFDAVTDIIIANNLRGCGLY
PKD1 kinase inh = PKD1 (human) kinase inhibition. PKD1 kinase fluorescence polarization assay. inhibition, %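 (about 10 µM by stock and volumes)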. 200,000 compounds, 0.056% hits;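 active means inhibition of 50% or more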;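 further: controls were vehicle for no effect and a reference inhibitor for full effect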
Insulin prom inh cell count = recorded beside Insulin prom inh, whose call it bears; normalized cell count, %; measured here: cell count, toxicity; reference of the scale not given here;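 cells exposed to compound for 48 h; stained nuclei by imaging scaled within each plate; lower means fewer cells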
HSV replic up primary fold = further read-out of HSV replic up, marked with its call; fold increase; compound at 10 µM; measured here: primary screen fold increase 10 uM; tested in PC3 cells;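 GFP signal in the first replicate; 1 = infected wells without compound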
* = called active by the depositor; i = inactive; ? = inconclusive; · = not tested or not shown.

Results follow in this order: HSV replic up | HSV replic up primary fold | Insulin prom inh | Insulin prom inh cell count | GALR2 agonist | RGS16-Gao | PKD1 kinase inh
COCCn1c(=O)[nH]c2cc(C(=O)NC(C)C)ccc2c1=O
→ i | 1.1 | · | · | -2.1 | 103 | -12
CCOC(=O)Cc1csc(NC(=O)CCCCCN2C(=O)c3ccccc3C2=O)n1
→ · | · | -26 | 144 | -3.2 | 100 | -8
CCOc1ccc(CNCc2ccccc2Cl)cc1
→ i | 0.98 | · | · | · | 105 | -5
COC(=O)c1cc([N+](=O)[O-])c(-n2ccnc2)c([N+](=O)[O-])c1
→ i | 0.98 | 15 | 107 | -0.5 | 113 | -14
CCCCCNC(=O)c1ccc2c(=O)n(CCCOCC)c(=S)[nH]c2c1
→ i | 1 | 40 | 115 | · | 36 | 3
CCCCCc1ccc(S(=O)(=O)Nc2cc(C)ccn2)cc1
→ i | 1 | · | · | · | 104 | ·
O=S(=O)(NC1CCCCC1)c1ccc(N2CCOCC2)nc1
→ i | 1 | · | · | · | 112 | ·
CN1CCN(S(=O)(=O)c2cccc(S(=O)(=O)c3ccc(Cl)cc3)c2)CC1
→ i | 0.95 | 8 | 110 | -1.0 | 103 | -10
O=C(Cn1c(COc2ccccc2)nc2ccccc21)Nc1cccc(Cl)c1
→ i | 0.93 | · | · | 2.2 | 100 | -2
CC(C)Cc1nc(N2CCN(C(=O)c3ccco3)CC2)c(C#N)c2c1CCC2
→ i | 0.89 | 8 | 147 | -1.8 | 98 | 0
Cc1ccccc1Nc1nc(N)nc(COC(=O)/C=C/c2ccco2)n1
→ i | 0.88 | 36 | 64 | · | 143 | 0
COc1cc(/C=C2\SC(=Nc3cccnc3)NC2=O)cc(OC)c1OC
→ ? | · | · | · | · | 105 | ·
c1cncc(-c2nn[nH]n2)c1
→ i | 0.95 | 25 | 65 | 0.1 | 103 | -11
COc1cccc(/C(O)=C2/C(=O)C(=O)N(CCN(C)C)C2c2ccccn2)c1 (stereo unspecified)
→ i | 1 | -36 | 97 | -2.7 | 105 | -16
OC(CN1CCc2ccccc2C1)c1ccccc1 (stereo unspecified)
→ i | 1 | 33 | 132 | · | 104 | -2
CC(=O)c1ccc(Sc2ccccc2N)c([N+](=O)[O-])c1
→ i | 1.1 | · | · | · | 102 | ·
COc1ccc(C2C(C#N)=C(/N=C/N3CCN(C)CC3)OC3=C2C(=O)CC(C)(C)C3)cc1 (stereo unspecified)
→ i | 0.85 | 6 | 72 | 0.3 | 106 | -3
CC(C)NC(=O)c1ccccc1NC(=O)/C=C/c1cccc([N+](=O)[O-])c1
→ i | 0.54 | -66 | 67 | 25* | 113 | -7
CC(=O)N(C)c1ccc(NC(=O)COc2ccc(Br)cc2C)cc1
→ i | 1 | 40 | 96 | -0.6 | 103 | -7
O=C(COC(=O)Cc1ccccc1[N+](=O)[O-])NC1CCCC1
→ i | 1 | · | · | · | 98 | -5
CC12CCC(C(=O)NNc3ccc([N+](=O)[O-])cc3)(OC1=O)C2(C)C (stereo unspecified)
→ i | 0.72 | · | · | · | 101 | ·
O=C(NC1CCCCC1)C(c1cccs1)N(C(=O)C(F)(F)F)c1ccccc1 (stereo unspecified)
→ i | 1.1 | -7 | 101 | 1.8 | 101 | 0
O=C(CC1(O)C(=O)N(CCc2ccccc2)c2ccccc21)c1ccccn1 (stereo unspecified)
→ i | 1.1 | · | · | · | 105 | 4
Cc1nc2sc(C(c3ccc(Br)cc3)N3CC(C)OC(C)C3)c(O)n2n1 (stereo unspecified)
→ i | 0.91 | 31 | 94 | -0.9 | 105 | -4
Cc1ccc(NC2=CC(=O)CC(C)(C)C2)cc1C
→ i | 0.71 | · | · | 0.2 | 100 | 6
COc1ccc(Cl)cc1NC(=O)CSc1nc(C)cc(C)n1
→ i | 0.92 | 25 | 120 | · | 109 | 3
CCSc1nnc(NC(=O)CSc2nnc(-c3c[nH]c4ccccc34)n2CC)s1
→ i | 1.1 | · | · | -1.3 | 102 | 6
NS(=O)(=O)c1ccc(CNC(=S)NC2CCCC2)cc1
→ i | 0.97 | -41 | 81 | · | 97 | -7
COc1ccccc1CNC(=O)CCCN1C(=O)COc2ccc(C)cc21
→ i | 1 | · | · | -0.2 | 98 | -2
CCOc1ccccc1C1CC(=O)NC(SCC(=O)Nc2nccs2)=C1C#N (stereo unspecified)
→ i | 1 | · | · | -4.2 | 103 | -2

Results follow in this order: HSV replic up | HSV replic up primary fold | Insulin prom inh | Insulin prom inh cell count | GALR2 agonist | RGS16-Gao | PKD1 kinase inh
O=C1C2C3C=CC([C@@H]2C(=O)N1C1CC1)[C@H]1C(=O)N(C2CC2)C(=O)C31 (stereo partly specified)
→ i | 0.99 | -29 | 200 | 0.5 | 102 | -11
O=C(/C=C/c1ccc(S(=O)(=O)N2CCOCC2)cc1)NCc1ccccc1
→ i | 1 | · | · | -0.1 | 100 | 1
CCCCS(=O)CC(COc1ccc(Cl)cc1)OC(=O)c1ccccc1 (stereo unspecified)
→ i | 0.85 | · | · | -0.4 | 102 | 3
COC(=O)c1cc(OC)c(OC)cc1NC(=O)c1ccc(C)cc1
→ i | 0.81 | 7 | 149 | -1.8 | 91 | -2
COc1ccc(C(CNC(=O)Cc2ccccc2F)N2CCCCC2)cc1 (stereo unspecified)
→ · | · | 36 | 95 | · | 123 | 5
COc1ccc(C2C(C#N)=C(SC)NC3=C2C(=O)CC(C)(C)C3)cc1 (stereo unspecified)
→ · | · | · | · | -1.1 | 97 | -14
CCCC(=O)c1cc2c(cc1NC(=O)CC)OCCO2
→ i | 0.88 | · | · | · | 105 | 3
CCCCOC(=O)CCn1[nH]c(=O)c2ccccc2c1=O
→ i | 0.75 | -21 | 106 | -1.6 | 103 | -18
CN1CCN(c2ccc(NC(=O)c3ccc(C#N)cc3F)cc2Cl)CC1
→ i | 0.99 | · | · | · | 97 | -1
Cc1ccc(-c2nnc(-c3ccc(Br)cc3)o2)o1
→ i | 0.96 | 8 | 97 | -0.9 | 76 | -8

Ordered by number of heavy atoms (rising): part of the list above
Results follow in this order: HSV replic up | HSV replic up primary fold | Insulin prom inh | Insulin prom inh cell count | GALR2 agonist | RGS16-Gao | PKD1 kinase inh
Cc1ccc(-c2nnc(-c3ccc(Br)cc3)o2)o1
→ i | 0.96 | 8 | 97 | -0.9 | 76 | -8
CCCC(=O)c1cc2c(cc1NC(=O)CC)OCCO2
→ i | 0.88 | · | · | · | 105 | 3
CCCCOC(=O)CCn1[nH]c(=O)c2ccccc2c1=O
→ i | 0.75 | -21 | 106 | -1.6 | 103 | -18
COc1ccc(Cl)cc1NC(=O)CSc1nc(C)cc(C)n1
→ i | 0.92 | 25 | 120 | · | 109 | 3
O=C1C2C3C=CC([C@@H]2C(=O)N1C1CC1)[C@H]1C(=O)N(C2CC2)C(=O)C31 (stereo partly specified)
→ i | 0.99 | -29 | 200 | 0.5 | 102 | -11
COc1ccc(C2C(C#N)=C(SC)NC3=C2C(=O)CC(C)(C)C3)cc1 (stereo unspecified)
→ · | · | · | · | -1.1 | 97 | -14
Cc1nc2sc(C(c3ccc(Br)cc3)N3CC(C)OC(C)C3)c(O)n2n1 (stereo unspecified)
→ i | 0.91 | 31 | 94 | -0.9 | 105 | -4
COc1ccccc1CNC(=O)CCCN1C(=O)COc2ccc(C)cc21
→ i | 1 | · | · | -0.2 | 98 | -2
CCOc1ccccc1C1CC(=O)NC(SCC(=O)Nc2nccs2)=C1C#N (stereo unspecified)
→ i | 1 | · | · | -4.2 | 103 | -2
CCSc1nnc(NC(=O)CSc2nnc(-c3c[nH]c4ccccc34)n2CC)s1
→ i | 1.1 | · | · | -1.3 | 102 | 6
